Compound activity: PubChem, several laboratories
Mtb betalactam: beta-lactam sensitization of Mtb H37Rv | M. tuberculosis H37Rv growth with meropenem, percent inhibition; hits of this screen are not shown here | inhibition, % at 25 µM | 330,000 tested, 0.27% active;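 active = about 74% or more and at least 40 points above the plate without the antibiotic, then above 30% in a dose series; inconclusive = first-round hits that could not be retested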;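 also: growth measured after seven days incubation then overnight dye step; 0% = bacteria only wells and 100% = bacteria with antibiotic; twin plates without the antibiotic show which effects depend on it; some results filed as inactive read as strong as hits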
YopH inh: inhibitors of Yersinia enterocolitica YopH tyrosine phosphatase; inhibition, %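 (about 10 µM by stock and volumes)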; fluorescence Ex485/Em525; 140,000 tested, 0.16% active; AID 898;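 active = inhibition of 50% or more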;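 also: controls were vehicle for no effect and minimum signal wells for full effect; inactives centre near -20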
Arbovirus inh: arbovirus infection inhibition; arbovirus infection cell-based antiviral screen; 200,000 tested, 0.37% active; inhibition, % at 10 µM;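 active = inhibition from about 30%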;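 also: bluetongue infection of BSR cells; cell survival read as ATP light after 72 h; 0% = infected wells without compound and 100% = uninfected wells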
Mtb growth: M. tuberculosis H37Rv growth inhibitors, H37Rv strain (AID 1626). M. tuberculosis H37Rv growth inhibition; higher % means a stronger effect. inhibition, % at 10 µM, or IC50 in µM where a hit was titrated. 220,000 tested, 0.95% active;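 active = confirmed in a dose series; inconclusive = inhibition above 80% but not taken into the dose series; inactive = below 80% or under 30% at every dose of the series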;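 also: bacteria incubated seven days before Alamar blue readout; 0% = bacteria only wells and 100% = bacteria with antibiotic wells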
RecA intein inh: blocks M. tuberculosis RecA intein splicing | cell-free RecA intein splicing, fluorescence | inhibition, %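 (about 9 µM by stock and volumes)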 | 290,000 tested, 0.75% active | AID 2221; in the data active = inhibition above about 30%; inconclusive = no clear call, values can overlap the other calls;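 also: 0% = vehicle wells and 100% = reference inhibitor control wells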
Target sequence (P9WHJ3 whole entry, looked up): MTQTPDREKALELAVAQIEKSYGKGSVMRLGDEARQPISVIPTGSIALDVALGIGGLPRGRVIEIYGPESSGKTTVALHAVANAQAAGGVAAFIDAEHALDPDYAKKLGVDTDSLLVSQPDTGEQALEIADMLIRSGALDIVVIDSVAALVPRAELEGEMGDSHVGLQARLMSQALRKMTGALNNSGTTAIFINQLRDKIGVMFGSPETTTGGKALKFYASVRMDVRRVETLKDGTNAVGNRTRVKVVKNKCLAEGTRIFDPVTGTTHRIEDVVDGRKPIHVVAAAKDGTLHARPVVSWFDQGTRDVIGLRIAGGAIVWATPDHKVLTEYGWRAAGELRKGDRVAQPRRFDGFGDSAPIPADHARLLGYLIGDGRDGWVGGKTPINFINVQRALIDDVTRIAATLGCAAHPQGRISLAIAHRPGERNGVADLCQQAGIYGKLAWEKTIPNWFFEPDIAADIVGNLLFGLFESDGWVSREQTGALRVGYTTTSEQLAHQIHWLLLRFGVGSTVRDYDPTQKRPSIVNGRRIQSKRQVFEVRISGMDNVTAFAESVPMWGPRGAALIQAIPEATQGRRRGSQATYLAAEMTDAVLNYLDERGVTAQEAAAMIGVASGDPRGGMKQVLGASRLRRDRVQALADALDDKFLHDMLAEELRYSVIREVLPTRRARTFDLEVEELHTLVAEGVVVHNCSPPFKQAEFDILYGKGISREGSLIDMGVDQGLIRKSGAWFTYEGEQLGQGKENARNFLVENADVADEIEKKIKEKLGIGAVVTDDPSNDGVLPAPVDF
Arbovirus inh repeat: also measured in Arbovirus inh; calls as there; inhibition, %; measured here: 10K subset replicate screen; many hits read low in the repeat;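 first of two repeat runs on a subset; 0% = infected and 100% = uninfected wells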
Starred values were filed as active, the others as inactive; ? = inconclusive; · = not tested or not shown.

SMILES	Mtb betalactam	YopH inh	Arbovirus inh	Mtb growth	RecA intein inh	others
COc1ccc(CNc2nc(-c3ccccc3)nn2C(=O)c2cccs2)cc1	2	-16	1	-5%	4.2
NS(=O)(=O)c1ccc(NC(=O)CSc2ncn[nH]2)cc1	-3	·	11	1%	0.4
O=C(Cc1ccc([N+](=O)[O-])cc1)Nc1ccc(O)cc1C(=O)O	5	-22	0	-6%	-3.6
CCN(CC)C(=O)/C(=C/c1ccc(F)cc1)NC(C)=O	3	-34	-3	1%	-1.6
Cc1ccc([N+](=O)[O-])cc1NC1OC(CO)C(O)C1O (centres undefined)	-2	-31	2	-3%	1.8
COc1cc(C(=O)Nc2ccc3c(c2)ncn3C)cc(OC)c1OC	-1	·	·	·	3.1
CC(C)c1ccc(NC2CCCN(C(=O)c3ccnc(Cl)c3)C2)cc1 (centres undefined)	1	·	·	·	-4.8
Cc1ccnc(NC(=O)CCC(=O)N(CC(=O)NC2CCCCC2)c2ccc3c(c2)OCO3)c1	-5	·	·	-8%	-0.7
CC1=CN2C(=N)/C(=C/c3ccc(Sc4ccc(Cl)cc4)o3)C(=O)N=C2S1	8	2	-4	15%	-0.2
O=C(NNC(=O)c1cccc2ccccc12)c1ccccc1O	8	·	·	·	27
CCCCn1c(SCC(=O)Nc2oc(C)c3c(C)n[nH]c(=O)c23)nc2cc(S(N)(=O)=O)ccc21	-5	·	·	·	-0.2
CC(=O)c1ccc(S(=O)(=O)N2CCN(C(=O)CN3C(=O)NC4(CCCC4)C3=O)CC2)cc1	-5	·	·	·	-0.6
CC1(C)CSC(=NCCc2ccccc2)N1C(=O)c1ccc(C#N)cc1	-8	-27	11	4%	3.1
O=C(N/N=C/c1ccc([N+](=O)[O-])cc1)c1cccc2cc[nH]c12	2	·	-2	3%	-0.1
CC(Oc1ccc(S(=O)(=O)N2CCCC2)cc1[N+](=O)[O-])C(=O)NC(C)c1ccccc1 (centres undefined)	-1	·	·	·	-4.1
COc1cc(/C=N/NC(=O)C[n+]2ccccc2)cc(OC)c1OC	-7	-26	10	-6%	0.1
COC(=O)c1cn(NC(=O)Cc2ccc(OC)c(OC)c2)c(=O)c2ccccc12	-7	·	-2	-7%	-1.4
COc1cc(C(=O)NC2CC(C)(C)CC(C)(C)C2)ccc1OC1CCN(C(C)=O)CC1	6	·	·	·	1.3
C=CCn1c(CCNC(=O)c2cccs2)nnc1SCC(=O)Nc1cccc(Cl)c1C	-12	1	2	-5%	0.7
CCOC(=O)C1CCN(C(=O)C(C)c2ccc([N+](=O)[O-])cc2)CC1 (centres undefined)	4	·	6	-2%	-1.4
O=C1c2ccccc2C(=O)N1CCc1ccccn1	-16	36	-2	-7%	0.3
O=C(CN1C(=O)CC(c2ccccc2)S(=O)(=O)c2ccccc21)N1CCCC1 (centres undefined)	0	·	3	1%	-3.3
CCOC(=O)c1cc(C#N)c(SCC(=O)c2cc(C#N)c(SC)nc2C)[nH]c1=O	-9	-15	16	-3%	5.2
Cn1cnnc1Sc1ccc(/C=C/C(=O)c2ccc(O)cc2)cc1[N+](=O)[O-]	62	·	-4	5%	0.9
O=C(NCCc1ccccc1)C1CCC(=O)N(CCCN2CCCC2=O)C1 (centres undefined)	-4	·	·	·	0.8
CCOC(=O)N1CCC(NC(=O)C2CCCN(S(C)(=O)=O)C2)CC1 (centres undefined)	-9	-45	7	0%	0.1
COc1ccccc1C1C=C(c2ccccc2)Nc2nnnn21 (centres undefined)	6	-16	4	16%	-23	Arbovirus inh repeat=-2
CC(=O)N1N=C(c2ccncc2)CC1c1ccccc1O (centres undefined)	0	·	4	-6%	0.0
Cc1ccc(C2CC(=O)Oc3cc(O)ccc32)cc1 (centres undefined)	-8	-14	3	-4%	1.2
O=C(CSC1=Nc2ccccc2C2=NC(CC(=O)NCc3ccco3)C(=O)N12)NCc1ccco1 (centres undefined)	3	2	3	-5%	3.9
O=C(O)c1ccc(/C=N/NC(=O)C2CC2(c2ccccc2)c2ccccc2)cc1 (centres undefined)	7	·	7	5%	15
COC(=O)c1c(NC(=O)CN2CCOCC2)sc2c1CCC(C)C2 (centres undefined)	10	-12	0	8%	-3.4
COC(=O)C(C(=O)OC)C(C[N+](=O)[O-])c1ccc(OC)c(OC)c1 (centres undefined)	1	-29	2	-4%	-5.2
O=C(NN1C(=O)c2ccccc2C1=O)c1ccc2c(c1)C(=O)N(CC1CCCO1)C2=O (centres undefined)	-10	·	·	-7%	1.1
O=[N+]([O-])c1cc(-c2cnc3ccccc3n2)ccc1Oc1ccc(Cl)cc1	5	-13	22	10%	-2.6
COc1ccc2[nH]cc(C3N4CC5(C)CN3CC(C)(C4)C5=O)c2c1 (centres undefined)	3	11	8	2%	0.3
C=CCNC(=O)C1CCC(=O)N1S(=O)(=O)c1ccc(C)cc1 (centres undefined)	-2	·	·	·	-5.1
NS(=O)(=O)c1cccnc1Nc1cccc(Cl)c1Cl	3	-15	-3	6%	1.9
O=C(NC(=S)NNC(=O)c1cnccn1)c1ccc(F)cc1	5	·	-28	-8%	-0.5
CCN1CCN(c2cc(C)c3cc(NC(=O)c4ccc(Br)o4)ccc3n2)CC1	96	-31	-27	-6%	1.3	Arbovirus inh repeat=-26
Cc1cc(C)c(S(C)(=O)=O)c(Oc2cccc(C(F)(F)F)c2)n1	3	·	2	6%	33*
CC(=O)O[C@@H]1[C@@H](OC(C)=O)[C@H](n2ccc3cc([N+](=O)[O-])ccc32)OC[C@@H]1OC(C)=O	-5	2	-1	5%	1.2
CC(=O)Nc1ccc(S(=O)(=O)NCCC(=O)Nc2cccc(Cl)c2)cc1	0	·	·	·	1.3
O=C1C(CSCc2ccccc2)NC(=S)N1c1ccccc1 (centres undefined)	0	·	·	-1%	6.4
O=C(NCCOc1ccccc1)c1ncn[nH]1	-5	-2	-8	-8%	2.6
O=Cc1cn(CC(=O)N2CCCCC2)c2ccccc12	5	-31	8	-1%	3.4
COc1cccc(-n2nnnc2SCC(=O)Nc2cccc(NC(C)=O)c2)c1	8	-12	-5	-5%	0.0
O=C(CSc1nnc(-c2ccco2)n1-c1ccccc1)NCc1ccc2c(c1)OCO2	?	-3	0	3%	3.2
CCOC(=O)C1CCN(C(=O)C2CCCN2S(=O)(=O)c2ccc(Cl)cc2)CC1 (centres undefined)	0	·	·	·	1.6
CCOC(=O)C1CCCN(C(=O)CCc2ccccc2)C1 (centres undefined)	-5	36	-2	-11%	-3.0
O=P(Oc1ccccc1)(Oc1ccccc1)C(Nc1ccccc1)c1ccccc1 (centres undefined)	7	1	0	8%	0.9
Cc1ccccc1OCCSc1nc(N(C)C)nc(N(C)C)n1	10	-26	-3	6%	1.0
O=C1CNCc2[nH]c3ccccc3c2N1c1ccccc1	-4	-13	5	3%	-4.4
Cc1cc(C)cc(NC(=O)c2cccc(NC3=NC4CS(=O)(=O)CC4S3)c2)c1 (centres undefined)	4	·	·	·	0.8
Cn1cc(Cl)c(-c2n[nH]c(=S)n2C2CCCCC2)n1	-5	·	3	1%	-0.8
CCOC(=O)c1sc(NC(=O)CN2C(=O)c3cccc4cccc(c34)C2=O)nc1C	1	-3	0	0%	0.8
Cc1cccnc1NC(=O)CSc1nnc(COc2ccc(C(C)C)cc2)n1C	-3	-15	3	-9%	-5.1
CS(=O)(=O)N(CC(=O)N1CCCC1)c1cccc(F)c1	4	·	·	·	7.5
Cc1ccc(NC(=O)C2CCCN(c3ncccn3)C2)c(C)c1 (centres undefined)	-3	·	·	·	-0.7
O=C(O)CSCc1c(F)cccc1Cl	4	-37	-8	-9%	0.1

Going on with the list.
SMILES	Mtb betalactam	YopH inh	Arbovirus inh	Mtb growth	RecA intein inh	others
COc1ccc(CCN2CCCn3c2nc2c3c(=O)n(Cc3ccccc3F)c(=O)n2C)cc1OC	3	-37	4	-4%	-9.9
CCc1cc2c(-n3nc(C)cc3C)ncnc2s1	32	-6	-4	2%	1.1
COc1ccccc1/C=C/C=N/n1c(COc2ccccc2)n[nH]c1=S	-1	-53	-3	5%	3.1
CC(C)C(=O)Nc1ccc(C(=O)NNC(=O)C(c2ccccc2)c2ccccc2)cc1	8	-14	-7	-6%	-1.9
COc1ccc(CCNC(=O)C2CCN(S(=O)(=O)c3ccc4nc5c(c(C(=O)O)c4c3)CCCC5)CC2)cc1OC	-1	·	·	·	1.0
O=C(NC(=S)Nc1cccc(NC(=O)c2ccccc2Cl)c1)c1cccs1	2	-26	0	7%	-2.3
CCc1ccc(C(=O)NNC(=O)c2cccc(N3C(=O)CCC3=O)c2)cc1	0	·	·	·	-0.4
O=C(COc1ccc(Cl)cc1Cl)NNC(=S)NC(=O)c1ccco1	61	·	·	·	-1.6
O=C(Cc1ccc(-c2ccccc2)cc1)NCc1cccnc1	7	·	-15	2%	-1.0
Cc1ccc2[nH]nc(C(=O)N3CCCC(C(=O)c4ccc(Cl)cc4)C3)c2c1 (centres undefined)	1	·	-9	-7%	5.4
CCCCn1c(N)c(N(CC(C)C)C(=O)CCCc2nc3ccccc3s2)c(=O)[nH]c1=O	-8	·	·	·	4.2
CCn1c(N)c(C(=O)NCc2cccnc2)sc1=S	-9	-43	-8	19%	-4.2
CCc1ccc2c(c1)C(c1ccc([N+](=O)[O-])cc1)=NNC(c1ccc(F)cc1)=N2	11	-28	-3	-4%	-2.3
COc1ccc(OCC(O)CNC(=O)c2ccc(OC)cc2)cc1 (centres undefined)	11	·	5	2%	0.8
C=CCNC(=S)Nc1ccc(Br)cc1F	-6	-22	-10	4%	0.6

Among those listed so far, 10 have an aryl thioether with sulfur outside any ring.
SMILES	Mtb betalactam	YopH inh	Arbovirus inh	Mtb growth	RecA intein inh	others
NS(=O)(=O)c1ccc(NC(=O)CSc2ncn[nH]2)cc1	-3	·	11	1%	0.4
CC1=CN2C(=N)/C(=C/c3ccc(Sc4ccc(Cl)cc4)o3)C(=O)N=C2S1	8	2	-4	15%	-0.2
CCCCn1c(SCC(=O)Nc2oc(C)c3c(C)n[nH]c(=O)c23)nc2cc(S(N)(=O)=O)ccc21	-5	·	·	·	-0.2
C=CCn1c(CCNC(=O)c2cccs2)nnc1SCC(=O)Nc1cccc(Cl)c1C	-12	1	2	-5%	0.7
CCOC(=O)c1cc(C#N)c(SCC(=O)c2cc(C#N)c(SC)nc2C)[nH]c1=O	-9	-15	16	-3%	5.2
Cn1cnnc1Sc1ccc(/C=C/C(=O)c2ccc(O)cc2)cc1[N+](=O)[O-]	62	·	-4	5%	0.9
COc1cccc(-n2nnnc2SCC(=O)Nc2cccc(NC(C)=O)c2)c1	8	-12	-5	-5%	0.0
O=C(CSc1nnc(-c2ccco2)n1-c1ccccc1)NCc1ccc2c(c1)OCO2	?	-3	0	3%	3.2
Cc1ccccc1OCCSc1nc(N(C)C)nc(N(C)C)n1	10	-26	-3	6%	1.0
Cc1cccnc1NC(=O)CSc1nnc(COc2ccc(C(C)C)cc2)n1C	-3	-15	3	-9%	-5.1

(list continues)
SMILES	Mtb betalactam	YopH inh	Arbovirus inh	Mtb growth	RecA intein inh	others
CS(=O)(=O)N1CCN(c2ccc(NC(=O)c3cc4ccccc4o3)cc2)CC1	0	·	·	·	1.3
COc1ccc(C(O)c2nccn2Cc2ccccc2)cc1 (centres undefined)	-1	-9	6	-5%	2.9
Cc1ccc(/C(N)=N/OC(=O)c2cccs2)cc1	0	-3	-12	14%	-2.0
CCOC(=O)[C@@H]1[C@H]2COc3ccccc3[C@H]2N2C(=O)N(c3ccc(F)cc3)C(=O)[C@]12C	4	·	·	·	-1.3
COc1cc(NC(=O)c2cccc3c2C(=O)N(Cc2cccnc2)C3)cc(OC)c1OC	2	-15	-5	10%	-0.1
CCC(NC(=O)CCCc1ccccc1)c1ccccc1 (centres undefined)	-6	-11	-9	10%	-4.3
S=c1[nH]nc(-c2ccco2)n1/N=C/C(Cl)=C/c1ccccc1	10	·	·	7%	9.4
Cc1cc(C(=O)C(=O)NC(C)C)c(C)n1-c1ccc([N+](=O)[O-])cc1	-4	-25	0	3%	3.4
COc1cccc(-c2ccc(SCC(=O)N3CCN(c4ccccc4)CC3)nn2)c1	6	·	2	4%	-2.3
Cc1ccc(NC(=O)NCCN2CCN(c3ccccc3)CC2)cc1Cl	4	·	·	·	-1.3
CCN1C(=O)/C(=C\c2cccs2)C(C(=O)OC)=C1C	-3	2	-6	-4%	-3.1
Cc1ccc(S(=O)(=O)N(CC(=O)N(C(C)C)C(C)C)C(=O)N2CCN(C)CC2)cc1	?	·	·	·	1.8
COc1ccc(C(C(=O)NC2CCCCC2)N(C(=O)c2sc(C)nc2C)c2ccccc2C)cc1 (centres undefined)	97	-15	-12	7µM*	14
CCCNC(=O)COC(=O)c1ccc(N2CCCC2)c([N+](=O)[O-])c1	1	·	3	-4%	0.7
Cc1ccc(CS(=O)(=O)c2ncn[nH]2)cc1	1	·	4	-2%	-2.1
CCc1ccc(-n2c(=O)c3c(C)c(C(=O)N(C)C)sc3n(CC(=O)NCC3CCCO3)c2=O)cc1 (centres undefined)	-1	·	8	-8%	-1.4

These rows are one share of the data; count on the stated rates, not on these rows.
